# Screening results (PubChem)
# HSV augment: enhancers of HSV replication in host cells, fold increase, host cell viability. HSV replication augmentation in cells. maximum fold increase. 220,000 compounds, 0.005% hits. AID 1956, 2009;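 active = peak rise of 1.5-fold or more in the series; tested in PC3 cells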;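 note: first round at 10 µM; read as green reporter fluorescence; hits show the peak of a series up to 25 µM; 1 = signal of infected wells without compound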
# Insulin prom inh: inhibitors of insulin promoter-driven GFP, primary screen, imaging, TRM-6 cells (human fetal islet line), eGFP reporter, cell count; reporter expression induced with tamoxifen; inhibition, % at 2 µM; 130,000 compounds, 0.9% hits;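 active = inhibition above the mean plus 3 SD, with well images judged a real hit on visual review, cut at about 60% in these data, passing the limit was not always enough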
# RGS16-Gao HTS: modulators of RGS16 binding to Galphao, primary screen, biochemical, human proteins, multiplexed bead flow cytometry | AID 1441, 2008 | bead-based flow cytometry RGS16-Galphao binding, fluorescence; actives lie on both sides | 220,000 compounds, 0.38% hits | binding response (% of control), % at 10 µM;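 active = below 25% or above 175%, edge rows of some plates excepted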;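 note: Galphao activated by GDP with aluminum fluoride before binding; 100% = wells without compound and 0% = beads without RGS; some results beyond the cut were filed as inactive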
# GALR2 ag: GALR2 receptor agonists, primary screen, cell-based; Galanin receptor type 2 (Homo sapiens), O43603; GALR2-expressing cells, agonist activation read-out; activation, %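 (tested at 5 µM)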; 140,000 compounds, 0.48% hits;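 active = above mean plus 3 SD of all compounds, about 5% in these data, not always enough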;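 note: 0% = vehicle buffer wells and 100% = reference agonist at full effect; tested in CHO reporter cells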
# PKD1 inh: inhibitors of human PKD1 kinase, biochemical, fluorescence polarization. Serine/threonine-protein kinase D1 (Homo sapiens), Q15139. PKD1 kinase fluorescence polarization assay. inhibition, %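 (about 10 µM by stock and volumes)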. 200,000 compounds, 0.056% hits. AID 797, 2007;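 active = inhibition of 50% or more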;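 note: controls were vehicle for no effect and a reference inhibitor for full effect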
# Target sequence (Q15139 whole entry, looked up): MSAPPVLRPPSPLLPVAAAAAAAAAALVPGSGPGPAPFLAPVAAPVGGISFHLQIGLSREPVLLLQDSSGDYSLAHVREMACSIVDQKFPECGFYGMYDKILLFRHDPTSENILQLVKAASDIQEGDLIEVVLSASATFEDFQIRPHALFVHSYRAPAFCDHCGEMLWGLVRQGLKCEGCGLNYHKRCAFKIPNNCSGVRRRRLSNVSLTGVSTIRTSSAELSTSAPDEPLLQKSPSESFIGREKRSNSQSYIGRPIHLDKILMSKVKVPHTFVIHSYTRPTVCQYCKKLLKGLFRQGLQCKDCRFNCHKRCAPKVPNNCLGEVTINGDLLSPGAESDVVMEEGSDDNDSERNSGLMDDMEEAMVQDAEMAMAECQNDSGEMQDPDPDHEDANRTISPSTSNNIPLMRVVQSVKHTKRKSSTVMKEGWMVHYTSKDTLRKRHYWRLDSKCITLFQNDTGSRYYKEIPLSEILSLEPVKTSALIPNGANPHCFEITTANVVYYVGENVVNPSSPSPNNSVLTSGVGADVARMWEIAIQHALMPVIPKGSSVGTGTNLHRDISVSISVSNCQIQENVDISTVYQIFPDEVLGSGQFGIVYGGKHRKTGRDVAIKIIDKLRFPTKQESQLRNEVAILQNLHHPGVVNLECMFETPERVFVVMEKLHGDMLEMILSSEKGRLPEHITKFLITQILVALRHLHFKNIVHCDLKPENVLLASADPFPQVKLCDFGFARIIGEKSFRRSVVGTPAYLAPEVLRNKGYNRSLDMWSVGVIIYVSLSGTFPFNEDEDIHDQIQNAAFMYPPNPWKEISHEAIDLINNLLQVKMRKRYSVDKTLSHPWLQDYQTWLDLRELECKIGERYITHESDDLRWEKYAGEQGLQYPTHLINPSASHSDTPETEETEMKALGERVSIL
# Insulin prom inh cell count: further read-out of Insulin prom inh, marked with its call; normalized cell count, %; measured here: cell count, toxicity; reference of the scale not given here;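 cells exposed to compound for 48 h; stained nuclei by imaging scaled within each plate; lower means fewer cells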
# HSV augment primary fold: second read-out of HSV augment, no call of its own (marks repeat the call); fold increase; compound at 10 µM; measured here: primary screen fold increase 10 uM; tested in PC3 cells;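 GFP signal in the first replicate; 1 = infected wells without compound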
# The depositor's hits bear a star; i = inactive; nt = no result given.
molecule	HSV augment	Insulin prom inh	RGS16-Gao HTS	HSV augment primary fold	GALR2 ag	Insulin prom inh cell count	PKD1 inh
O=C(COc1ccc2ccc(=O)oc2c1)Nc1ccc(N2CCOCC2)cc1	i	56	96	1	-2.2	69	-7
Cc1cc2c(c(=O)o1)C(C(C)C)C(C#N)=C(N)O2 (stereo not drawn)	i	nt	100	0.93	-1.3	nt	-6
Cc1nnc(NC(=O)CCC(=O)NCc2ccco2)s1	i	nt	104	0.91	0.3	nt	6
Cc1nc(SCC(=O)N2CCc3ccccc3C2)c2c(C)c(C)sc2n1	i	29	124	0.77	-0.6	108	7
Cc1cc(SCC2=NNC(=O)C2)c(Cl)cc1Cl	i	nt	100	1	nt	nt	nt
CCC1CCCCN1CCNC(=O)C1CCN(S(=O)(=O)c2c(C)noc2C)CC1 (stereo not drawn)	i	19	101	1	-2.2	86	2
Fc1ccccc1NC(=S)N1CCN(Cc2ccc3c(c2)OCO3)CC1	i	nt	95	1	nt	nt	0
CC1=N/C(=C\c2ccc3c(c2)OCO3)C(=O)N1c1ccc(C(=O)O)cc1	i	14	102	1.1	-0.2	74	-6
COc1ccc(N=CC=C2OC(C)(C)C(C)(C)O2)cc1OC	i	nt	106	1	nt	nt	nt
CCOC(=O)N1CCN(c2c(NCCc3ccc(OC)c(OC)c3)c(=O)c2=O)CC1	i	nt	100	1	-1.8	nt	2
Cc1nc2ccc3nc(NC(=O)c4ccco4)sc3c2s1	i	11	nt	1.2	1.5	100	-3
CN1CCN(C2=C(Cl)C(=O)N(c3ccc(Cl)cc3)C2=O)CC1	i	nt	103	0.92	-0.3	nt	-3
COc1ccc(N2C(=O)[C@@H]3[C@H](C2=O)[C@H]2C=CC=NN2[C@@H]3C(=O)Nc2ccc(Cl)cc2)cc1	i	nt	103	1.1	nt	nt	nt
Cc1cc2c(NC(=O)Nc3ccc(C(F)(F)F)cc3)cccc2nn1	i	nt	95	0.81	nt	nt	nt
CSCCC(NC(=O)c1ccc(Cl)cc1)C(=O)OCC(C)=O (stereo not drawn)	i	10	100	0.94	nt	107	-8

# 3 compounds out of the list, arranged by formula weight, low to high.
molecule	HSV augment	Insulin prom inh	RGS16-Gao HTS	HSV augment primary fold	GALR2 ag	Insulin prom inh cell count	PKD1 inh
Cc1cc2c(c(=O)o1)C(C(C)C)C(C#N)=C(N)O2 (stereo not drawn)	i	nt	100	0.93	-1.3	nt	-6
Cc1cc(SCC2=NNC(=O)C2)c(Cl)cc1Cl	i	nt	100	1	nt	nt	nt
O=C(COc1ccc2ccc(=O)oc2c1)Nc1ccc(N2CCOCC2)cc1	i	56	96	1	-2.2	69	-7

# Continuation:
molecule	HSV augment	Insulin prom inh	RGS16-Gao HTS	HSV augment primary fold	GALR2 ag	Insulin prom inh cell count	PKD1 inh
O=C(Nc1nnc(C(F)(F)F)s1)c1ccc(Br)s1	i	nt	96	1	nt	nt	-4
CC(C)C(Sc1nc(-c2ccccc2)cc(-c2ccccc2)c1C#N)C(=O)O (stereo not drawn)	i	nt	40	0.85	nt	nt	7
COc1ccccc1NC(=O)COC(=O)c1cnc(C)cn1	i	nt	99	0.93	nt	nt	-2
O=C(CNC(=O)c1ccc(F)cc1)Nc1ccccc1C(F)(F)F	i	nt	97	0.96	nt	nt	nt
COc1cccc(/C=C2\SC(=S)N(C(Cc3ccccc3)C(=O)O)C2=O)c1 (stereo not drawn)	i	nt	100	0.85	nt	nt	0
N/C(CS(=O)(=O)c1ccc(F)cc1)=N\O	i	nt	88	0.75	nt	nt	nt
C=CCOc1c(CCC)cc(CCC)cc1C(N)=O	i	nt	96	1.2	nt	nt	nt
Cc1noc(C)c1S(=O)(=O)N1CCCC(C(=O)NCCc2ccccc2)C1 (stereo not drawn)	i	nt	96	1.2	-0.8	nt	10
COc1ccc(OC)c(C2NC(=O)NC(C)=C2C(=O)Nc2ccc(C)cc2)c1 (stereo not drawn)	i	12	94	1.3	0.1	114	3
Cc1ccc(N2N=C(c3ccc(F)cc3)CC2c2ccco2)cc1 (stereo not drawn)	i	-33	109	1.2	nt	85	6
O=C(Nc1ccc(C(=O)NC2CCCCC2)cc1)c1cccnc1	i	nt	105	0.83	nt	nt	-9
Cc1cc(C(F)F)n2ncc(C(=O)NCc3ccccc3)c2n1	i	-35	99	0.86	-1.2	92	0
COCc1cc(=O)n2[nH]c(N)nc2n1	i	nt	89	0.8	nt	nt	nt
COc1cc(C(=O)n2nc(C)cc2C)cc(OC)c1OC	i	-38	90	0.84	-0.7	54	4
Cn1c(SCC(=O)NC2CC2)nnc1-c1ccco1	i	6	100	0.76	0.4	125	-10
COc1ccc(CNC(=O)c2ccc[nH]2)cc1	i	8	103	1	nt	128	-2
O=C(CSc1ccc(Cl)cc1)Nn1cnnc1	i	-14	98	0.97	0.1	129	-5
C=CCN(C(C)=O)C1CC(=O)N(c2ccc(OCCC)cc2)C1=O (stereo not drawn)	i	31	107	0.91	-1.0	47	-7
O=C(NCc1cccs1)c1ccc(N2CCCCC2)nc1	i	13	97	0.64	-0.5	23	5
Cc1ccc2nc(SCc3ccc([N+](=O)[O-])cc3)[nH]c2c1	i	7	52	1	-5.5	110	-7
O=C(NC1CCCC1)c1cnc2n(c1=O)CCS2	i	-57	69	0.98	-4.7	165	2
Cc1ccnc(N2CCC(C(=O)NNC(=O)c3ccccc3C)CC2)n1	i	6	107	0.96	-3.0	117	9
COc1cccc(CSc2nc3ccccc3[nH]2)c1	i	nt	102	0.86	-0.2	nt	-4
COc1ccc(-n2nc([N+](=O)[O-])c(=NCCCN3CCCC3=O)n2O)cc1	i	nt	104	0.99	nt	nt	0
COCCNc1nc2nonc2nc1N1CCC(N(C)C)C1 (stereo not drawn)	i	25	105	0.99	nt	113	7
CCCCOC(=O)CCc1c(C)[nH]c(=S)[nH]c1=O	i	16	100	0.93	-0.2	129	6
CCOc1ccc(C(=O)Nc2cccc(SC)c2)cc1	i	29	121	0.89	-0.9	155	-7
Cc1ccc(C(=O)N/C(=C\c2cn(C)c3ccccc23)C(=O)OCCN(C)C)cc1	i	nt	100	0.99	nt	nt	nt
O=C(NCC(=O)N(CCN1CCOCC1)C(C(=O)NC1CCCC1)c1cccs1)c1ccco1 (stereo not drawn)	i	nt	103	0.99	-2.3	nt	-7
CCn1c(C(Cc2ccccc2)NC(=O)COC)nc2ccccc21 (stereo not drawn)	i	nt	104	1.1	-1.5	nt	-11
CC(C)(C)OC(=O)N1CCOCCOCCNCCOCCOCC1	i	-44	100	1	-3.0	124	-2
CCOc1ccc(C2=Nc3ccccc3C(c3ccc(N4CCOCC4)cc3)=NN2)cc1	nt	9	76	nt	-0.4	73	1
O=[N+]([O-])c1cc(/C=N/Nc2nc3ccccc3[nH]2)c(O)cc1O	i	nt	103	0.77	-1.8	nt	13
Cn1c(CN2CCCCC2)nc2cc(NS(=O)(=O)c3ccc(Cl)cc3)ccc21	i	-20	105	0.92	-2.8	59	-6
Cc1cccc(NC(=O)CSc2nnc(CSc3nc(C)cc(C)n3)n2Cc2ccco2)c1	i	nt	93	0.89	1.5	nt	-1
Cc1ccc(-c2csc(=S)n2CC(=O)OCC(=O)NCc2ccco2)cc1	i	nt	91	0.79	-0.5	nt	-3
CC(=O)Cc1nsc(NC(=O)c2cn(-c3ccccc3)nc2-c2ccc(Br)cc2)n1	i	-36	102	0.88	-1.8	71	2
CCCC(C)NC(=O)c1cc(C(=O)OC)cc([N+](=O)[O-])c1 (stereo not drawn)	i	-3	21	1	-0.8	91	11
CSc1c(C#N)sc(=S)n1-c1ccc(C)cc1	i	nt	91	1	nt	nt	0
CC(OC(=O)c1ccccc1Br)C(=O)Nc1nc(-c2cccc([N+](=O)[O-])c2)cs1 (stereo not drawn)	i	nt	99	0.97	-0.3	nt	-11
COc1ccc(CCNc2ncnc3[nH]ncc23)cc1OC	i	nt	84	1	-1.0	nt	7
c1csc(C(c2nnnn2C2CCCC2)N2CCOCC2)c1 (stereo not drawn)	i	15	95	0.93	-0.7	64	-1
COc1ccc(-n2c(SCC#N)nnc2-c2cccnc2)cc1	i	nt	97	0.97	-0.4	nt	10
Cc1ccc(S(=O)(=O)NC(=O)N2CCC(C)CC2)cc1	nt	36	192	nt	-1.6	98	8
CCOC(=O)C(CCC#N)(CCC#N)C(=O)OCC	i	nt	108	0.99	-3.0	nt	-6

# Three compounds from above, ordered by their value in HSV augment primary fold, smallest number first:
mol	RGS16-Gao HTS	HSV augment primary fold	GALR2 ag	PKD1 inh
Cc1cccc(NC(=O)CSc2nnc(CSc3nc(C)cc(C)n3)n2Cc2ccco2)c1	93	0.89	1.5	-1
CCOC(=O)C(CCC#N)(CCC#N)C(=O)OCC	108	0.99	-3.0	-6
CC(C)(C)OC(=O)N1CCOCCOCCNCCOCCOCC1	100	1	-3.0	-2

# (list continues)
molecule	HSV augment	Insulin prom inh	RGS16-Gao HTS	HSV augment primary fold	GALR2 ag	Insulin prom inh cell count	PKD1 inh
O=C(c1cccc(Br)c1)N1CCCC1	i	32	101	1.1	-0.4	106	-1
COC(=O)c1c(NC(=O)CSc2nnc3ccccn23)sc2c1CCC2	i	25	105	0.79	-0.5	120	-4
CC(C)c1ccc(Nc2nc(Cl)nc(NCc3ccco3)n2)cc1	i	nt	103	0.84	nt	nt	nt
Nc1ncnc(Oc2ccccc2F)c1[N+](=O)[O-]	i	nt	99	0.88	nt	nt	5
Cc1cccc(Nc2ccccc2)c1	i	37	103	0.92	-1.0	81	-3
N#Cc1c(-c2ccc(F)cc2)c2c([nH]c1=O)-c1ccccc1OC2	i	nt	93	1.1	nt	nt	nt
O=C(CC1SC(=O)NC1=O)Nc1ccc(Cl)cc1 (stereo not drawn)	i	21	98	0.98	nt	104	-16
CCOC(=O)CSc1nc2c(c(=O)[nH]c(=O)n2C)n1C/C=C(/C)Cl	i	15	95	0.85	0.1	197	8
COc1cc(C(=O)Nc2cccc(C)c2C)c(Br)c(OC)c1OC	i	14	97	1	nt	91	0
CC(C)CCN(CCC(C)C)C(=O)Cc1c(O)c2ccccc2[nH]c1=O	i	nt	98	0.92	nt	nt	nt
COc1ccc(OC)c(NC(=O)CSC2=C(C#N)C(c3ccco3)C3=C(CCCC3=O)N2)c1 (stereo not drawn)	nt	nt	98	nt	-0.1	nt	-3
CCCCn1nnc(NC(=O)c2ccco2)n1	i	-8	101	0.95	-0.9	221	-5
CCNc1nc(NCC)nc(OCCOC(=O)c2ccccc2)n1	i	nt	99	1.3	-0.4	nt	-1
Nc1cc(C(=O)c2ccccc2)ccc1[N+](=O)[O-]	i	5	103	1.1	nt	108	-1
COc1ccc(CN2CC(C(=O)NCCCOC(C)C)CC2=O)cc1 (stereo not drawn)	i	57	102	0.91	-2.0	90	5
Cn1c(=O)cc(C(=O)N/N=C/c2ccc(Cl)cc2)[nH]c1=O	i	nt	101	1.1	nt	nt	nt
CC(=O)Nc1cnn(Cc2ccc(Br)cc2)c1	i	7	21	0.95	-0.5	134	2
CCOC(=O)N1CCC(N2C(=O)c3ccc(C(=O)NCc4ccco4)cc3C2=O)CC1	i	nt	107	0.87	-0.7	nt	-10
COc1ccc(/C=C/C(=O)O)cc1COc1cccc(C)c1	i	47	65	1.1	0.1	64	-12
Cc1ccccc1COCCN1CCN(S(=O)(=O)c2ccccc2)CCC1=O	i	nt	100	0.91	nt	nt	nt
COc1cc(OC)cc(C(=O)NC2CC3CCC(C2)N3Cc2ccco2)c1 (stereo not drawn)	i	nt	108	1.1	-2.1	nt	-2
COc1ccc(NC(=O)/C(=C\c2ccncc2)NC(=O)c2ccccc2)cc1	i	58	103	1.1	nt	109	7
Cc1ccc(SCC2=NNC(=O)C2)cc1	i	27	110	0.83	-3.6	47	-7
CC(NCc1ccccc1O)c1ccccc1 (stereo not drawn)	i	nt	97	0.97	nt	nt	0
CCOC(=O)c1cc(C#N)c(Nc2ccccc2OC)nc1C(F)(F)F	i	nt	103	0.64	nt	nt	nt
COCCCNC(=O)CC(NS(=O)(=O)c1ccc(OC)cc1)c1ccc(OC)cc1 (stereo not drawn)	i	nt	85	0.93	0.8	nt	-9
O=C(O)CCc1ccc(-c2ccccc2)n1NC(=O)c1cccs1	i	nt	109	0.93	nt	nt	-7
CCCN(CCC)CCNc1c(N2CCN(C(=O)OCC)CC2)c(=O)c1=O	i	nt	97	1	0.1	nt	-1
O=C(NOC(=O)c1ccccc1Cl)c1cccs1	i	-57	100	0.83	-2.5	71	-5
